# ALR H2O2 inh – inhibitors of human sulfhydryl oxidase ALR; P55789; purified ALR, DTT oxidation, H2O2 HRP-luminol luminescence; inhibition, % (concentration not given with the values); 3.8% of 290,000 active;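 active = mean and each replicate at 75% or more; inconclusive = only one of the two met; inactive = neither met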;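 also: stock transfer was 7.5 nL into about 7.5 µL; 0% = neutral wells and 100% = wells with inactivated enzyme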
# Target sequence (P55789 whole entry, looked up): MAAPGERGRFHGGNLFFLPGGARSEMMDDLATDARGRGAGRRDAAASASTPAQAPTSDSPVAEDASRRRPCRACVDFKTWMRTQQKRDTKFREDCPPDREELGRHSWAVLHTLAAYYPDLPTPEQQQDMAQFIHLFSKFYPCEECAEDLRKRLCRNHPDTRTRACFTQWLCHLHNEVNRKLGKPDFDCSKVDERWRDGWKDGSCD
# RanGTP-Impb inh – inhibitors of RanGTP-importin-beta interaction, primary screen, biochemical, FRET, CFP-Ran, YFP-importin-beta, homogeneous; cell-free CFP-Ran/YFP-importin-beta FRET ratio; AID 2216; inhibition, % (test concentration not listed); 1.1% of 300,000 active;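 active = most replicates above 15%; inconclusive = exactly half above 15%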;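 also: 0% = DMSO wells and 100% = Ran loaded with GDP instead of GTP; wells of about 40 µL received 100 nL stock; the first replicate is given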
# T cruzi repl – T. cruzi replication inhibition | T. cruzi beta-gal in NIH3T3, luminescence, 90 h | inhibition, % (concentration not given with the values) | 1.4% of 300,000 active | AID 1885;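 active = mean inhibition across valid replicates above about 55%, limit read from the data; inconclusive = mean below that limit but half or more replicates reach it; inactive = mean below it, under half of replicates reach it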;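 also: signal also drops with host cell toxicity which is not excluded here; 0% = plate median of DMSO wells and 100% = zero luminescence signal; higher percent means less beta-gal luminescence so fewer parasites; stock transfer was 50 nL into about 50 µL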
# AF4-AF9 inh – MLL-AF4/AF9 protein interaction inhibition; P42568; AlphaScreen, biotin-AF4 peptide binding to FLAG-AF9; inhibition, % at 10 µM; 0.47% of 350,000 active; AID 651704;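 active = every replicate reaching a set inhibition limit, whatever the replicate mean, cut at about 25% in these data; inconclusive = mean inhibition reaches that limit but some replicates miss it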;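 also: 0% = plate neutral control median and 100% = total signal loss; the record names both 10 and 1 µM as test concentration; the first replicate is given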
# Target sequence (P42568 whole entry, looked up): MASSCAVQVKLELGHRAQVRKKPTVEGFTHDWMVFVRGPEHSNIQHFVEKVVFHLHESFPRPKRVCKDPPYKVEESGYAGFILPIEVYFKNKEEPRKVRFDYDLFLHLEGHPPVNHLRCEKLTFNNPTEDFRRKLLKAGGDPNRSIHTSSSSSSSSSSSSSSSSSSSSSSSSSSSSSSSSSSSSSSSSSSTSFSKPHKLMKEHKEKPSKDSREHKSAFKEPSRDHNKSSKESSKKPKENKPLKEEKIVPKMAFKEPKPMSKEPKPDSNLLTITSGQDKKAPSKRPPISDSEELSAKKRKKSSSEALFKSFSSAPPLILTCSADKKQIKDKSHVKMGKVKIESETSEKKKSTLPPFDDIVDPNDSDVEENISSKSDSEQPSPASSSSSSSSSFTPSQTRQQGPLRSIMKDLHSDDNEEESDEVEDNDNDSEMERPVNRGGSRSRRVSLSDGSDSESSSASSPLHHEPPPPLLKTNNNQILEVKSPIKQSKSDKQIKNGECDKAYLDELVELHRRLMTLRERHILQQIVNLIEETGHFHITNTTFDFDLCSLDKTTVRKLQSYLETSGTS
# Calb FLC – affects C. albicans growth with fluconazole. C. albicans CaCi-2 (fluconazole-resistant clinical isolate) + fluconazole, Alamar Blue growth, 48 h. growth inhibition, % (no concentration beside the values). 0.57% of 300,000 active. AID 1979;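 active = most replicates above 75%; inconclusive = exactly half above 75%; inactive = most below 75%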;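 also: all wells also contain fluconazole at 8 µg/ml as a sub-toxic cotreatment; 0% = median of DMSO wells and 100% = median of geldanamycin control wells; wells of about 8 µL received 7.5 nL stock; the first replicate is given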
# Ecoli rRNA inh – selective bacterial rRNA inhibition in E. coli; E. coli WT GFP vs humanized-ribosome RFP mutants, fluorescence, 24 h; active compounds read low; DMSO median 0, no signal -100; GFP signal change (wild-type ribosome), % (concentration not given with the values); 1.6% of 350,000 active; AID 720706;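 active = significant combined selectivity score with lowered wild-type GFP, culture density cut under 30%, mutant RFP and density less affected; inactive = any of these conditions unmet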; also: one replicate is shown; some compounds called inactive have numbers as strong as hits
# Beta apoptosis – blocks beta cell apoptosis; INS-1E cytokine-induced death, ATP luminescence, 48 h; percent of positive-control rescue, neutral wells zero; protection from apoptosis, % (concentration not given with the values); 0.8% of 300,000 active; AID 435005;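 active = all replicates at 75% or more, or half of them and the mean; inconclusive = half reach 75% but not the mean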;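 also: 0% = cytokine-treated negative control wells and 100% = positive control rescue; higher means more ATP so stronger rescue from cytokine killing; wells of about 40 µL received 100 nL stock; the first replicate is given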
# FGF22 binding – FGF22 (human) thermal shift binding | recombinant FGF22 thermal shift, SYPRO orange fluorescence; percent of sucrose octasulfate shift, DMSO zero | AID 651658 | 1.5% of 340,000 active | calls only at 9.99 µM;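 active = melting point raised past a set limit in the mean and every replicate; inconclusive = no clear call; three in four hits are not shown here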
# Target sequence (Q9HCT0 whole entry, looked up): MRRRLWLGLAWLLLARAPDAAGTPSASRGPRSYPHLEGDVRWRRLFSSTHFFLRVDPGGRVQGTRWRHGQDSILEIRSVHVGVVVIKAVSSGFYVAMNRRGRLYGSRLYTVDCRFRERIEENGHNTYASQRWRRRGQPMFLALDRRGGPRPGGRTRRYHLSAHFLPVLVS
# Ecoli rRNA inh OD600 – second read-out of Ecoli rRNA inh, no call of its own (marks repeat the call); OD600 change, %; measured here: OD600 growth;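 optical density of the mix in the first replicate; 0 = DMSO median and -100 = no signal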
# Ecoli rRNA inh RFP – further read-out of Ecoli rRNA inh, marked with its call; RFP signal change, %; measured here: RFP humanized mutant strains;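 first replicate; 0 = DMSO median and -100 = no signal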
# * = called active by the depositor; i = inactive; ? = inconclusive; · = no result given; + = active, no number.
SMILES,ALR H2O2 inh,RanGTP-Impb inh,T cruzi repl,AF4-AF9 inh,Calb FLC,Ecoli rRNA inh,Ecoli rRNA inh OD600,Ecoli rRNA inh RFP,Beta apoptosis,FGF22 binding
O=C(Nc1cccc(S(=O)(=O)Nc2ccccc2Cl)c1)c1ccc(N2CCCC2)c([N+](=O)[O-])c1,-1,?,31,·,-2,·,·,·,7,·
COc1cc(C(=O)N[C@@H](C)C(=O)NCc2ccco2)cc(OC)c1OC,0,0.5,-13,0.7,-1,23,31,1.2,4,i
COc1cccc(CN2CCN(Cc3ccon3)CC2CCO)c1 (stereo not drawn),1,-1.9,1,-0.1,-7,20,18,3.3,-3,·
COC(=O)c1cccc(Oc2cccc(C(F)(F)F)c2)n1,-7,4.6,-14,-4.5,-6,3,1,-0.2,-1,i
COc1ccccc1N1CCN(C(=O)C2CCCN(c3ncnc4c3nc3n4CCCCC3)C2)CC1 (stereo not drawn),3,2.6,10,0.0,19,-4,0,-0.1,3,i
O=C(O)c1ccc(O)c(O)c1,98*,3.7,4,-2.3,-3,8,14,1.3,·,i
CC(NC(=S)Nc1ccccc1)C1COc2ccccc2O1 (stereo not drawn),-5,0.4,-3,-1.5,-31,-8,3,3.4,-7,i
S=C(NCc1ccc(Cl)cc1Cl)NC1CCCCC1,3,0.7,25,2.5,-26,·,·,·,·,i
Cc1cccc(-c2noc(CCCC(=O)Nc3cccnc3)n2)c1,-6,-1.2,-3,·,-7,·,·,·,2,·
C=C(C)CSC1=C(C#N)C(c2ccccc2)CC(=O)N1 (stereo not drawn),27,7.0,-9,·,15,·,·,·,2,·
C/C(N)=C(/C#N)C(=O)CSc1ncnc2ccccc12,4,-0.4,-15,·,3,·,·,·,-3,·
COC(=O)c1cc(NC(=O)CC2C(=O)NCCN2C(=O)c2ccc(F)cc2)cc(C(=O)OC)c1 (stereo not drawn),-3,-0.3,9,·,6,22,9,0.6,-3,·
O=C(NCCCN1CCOCC1)c1ccc(S(=O)(=O)Nc2ccccc2F)cc1,-3,4.8,2,0.8,19,-1,0,-1.3,-7,i
O=C(O)c1cccc(N=NN2CCCCCC2)c1,3,-1.3,1,·,2,·,·,·,-7,·
COc1cc(C(=S)N2CCOCC2)ccc1OS(=O)(=O)c1ccc(NC(C)=O)cc1,11,4.6,-11,·,-14,·,·,·,4,·
Cc1ccc(S(=O)(=O)NCC(=O)OCC(=O)N2CCN(C(=O)c3ccco3)CC2)cc1C,·,-7.5,8,0.9,-3,10,16,-0.3,1,i
COc1ccc(/C=C2/C(=O)OCc3cc(OC)c(OC)cc32)c(OC)c1,5,-1.3,-4,·,-10,·,·,·,·,·
O=C(Nc1ccc(NC(=O)c2cccc([N+](=O)[O-])c2)cc1)c1cccc([N+](=O)[O-])c1,-20,-0.6,19,3.1,12,16,13,3.0,2,i
O=C(COC(=O)CNS(=O)(=O)c1ccc2ccccc2c1)Nc1ccc2c(c1)OCO2,-37,2.7,4,-0.6,0,-5,1,5.1,-8,i
Cn1c(NNC(=O)c2ccc(C(C)(C)C)cc2)cc(=O)n(C)c1=O,3,7.2,-20,-0.8,-9,9,8,1.1,-11,i
CCc1nnc(NC(=O)CCc2ccccc2OC)s1,·,2.1,2,-4.7,-6,2,14,-1.3,3,i
COC(=O)c1c(NC(=O)C(=O)NCCCN2CCOCC2)sc2c1CC(C)(C)OC2,2,-3.1,-7,-1.8,-10,11,6,-3.3,6,i
Cc1cc(C)c(S(=O)(=O)N(CC(=O)O)CC(=O)O)c(C)c1,-4,-4.3,-11,·,1,·,·,·,-1,·
CN(C)S(=O)(=O)NCCNC(=O)c1cc(OCC(F)(F)F)ccc1OCC(F)(F)F,-18,-0.3,-12,-2.0,-11,9,7,1.5,-13,i
NC(=O)CSc1nnc(-c2ccco2)n1-c1ccccc1,·,-0.7,-3,0.3,-10,11,11,1.1,·,i

# Sorted by heavy-atom count (descending): part of the list above
SMILES,ALR H2O2 inh,RanGTP-Impb inh,T cruzi repl,AF4-AF9 inh,Calb FLC,Ecoli rRNA inh,Ecoli rRNA inh OD600,Ecoli rRNA inh RFP,Beta apoptosis,FGF22 binding
COc1ccccc1N1CCN(C(=O)C2CCCN(c3ncnc4c3nc3n4CCCCC3)C2)CC1 (stereo not drawn),3,2.6,10,0.0,19,-4,0,-0.1,3,i
O=C(COC(=O)CNS(=O)(=O)c1ccc2ccccc2c1)Nc1ccc2c(c1)OCO2,-37,2.7,4,-0.6,0,-5,1,5.1,-8,i
O=C(NCCCN1CCOCC1)c1ccc(S(=O)(=O)Nc2ccccc2F)cc1,-3,4.8,2,0.8,19,-1,0,-1.3,-7,i
COc1cc(C(=O)N[C@@H](C)C(=O)NCc2ccco2)cc(OC)c1OC,0,0.5,-13,0.7,-1,23,31,1.2,4,i
O=C(O)c1cccc(N=NN2CCCCCC2)c1,3,-1.3,1,·,2,·,·,·,-7,·

# Later entries
SMILES,ALR H2O2 inh,RanGTP-Impb inh,T cruzi repl,AF4-AF9 inh,Calb FLC,Ecoli rRNA inh,Ecoli rRNA inh OD600,Ecoli rRNA inh RFP,Beta apoptosis,FGF22 binding
Cc1ccc(NC(=O)CN2CCc3ccccc3C2)cc1S(=O)(=O)N(C)C,-2,-1.3,-4,4.2,-7,-18,-28,-0.8,-3,i
CC(C)(C)c1nnc(NC(=O)C2c3ccccc3Oc3ccccc32)s1,1,-0.8,-3,?,-8,2,-10,8.5,-8,i
O=C(CSc1nnc(CNC(=O)c2c(F)cccc2Cl)o1)c1ccccc1,14,-2.2,-11,·,6,·,·,·,·,·
NC(=O)c1ccsc1NC(=O)c1nc(-c2ccccc2)n(-c2ccccc2)n1,86*,2.2,20,·,18,·,·,·,3,·
O=C(CSc1nc2nn(-c3ccccc3)c(=O)c-2c2n1CCCCC2)Nc1ccc(F)cc1F,44,·,·,1.3,·,-3,2,-5.2,4,i
O=C(CS(=O)CC(=O)NC12CC3CC(CC(C3)C1)C2)Nc1ccc(F)cc1 (stereo not drawn),-1,5.9,-2,-1.5,-2,-9,-36,-2.1,4,i
COC(=O)c1ccc(C(=O)OC)c(NC(=O)CN2CCCCC2)c1,-3,-2.3,4,-12,-11,12,9,0.2,-3,i
Cn1c(CCN2CCCCC2)nc2cc(NS(=O)(=O)c3ccccc3)ccc21,-3,-0.4,0,·,-9,·,·,·,39,·
c1ccc(-c2cn(C[C@H]3CC[C@@H]([C@@H]4CC[C@H](Cn5cc(-c6ccccc6)nn5)O4)O3)nn2)cc1,·,-1.7,16,-0.1,2,1,5,0.6,7,i
O=[N+]([O-])c1ccc(-[n+]2ccc3ccccc3c2)c([N+](=O)[O-])c1,·,0.5,71*,·,42,·,·,·,109*,·
CCOC(=O)c1c(C)[nH]c(C)c1S(=O)(=O)NCc1ccccc1OCC,-3,1.1,9,-8.0,22,4,3,2.4,-5,i
COc1cc(OC)cc(-c2nnc(SCC(=O)N(Cc3ccccc3)C(C)(C)C)o2)c1,0,1.0,37,·,16,·,·,·,20,·
Cc1ccc(NC(=O)CCNC(=O)c2ccccc2)cc1F,2,-3.4,-3,2.1,2,1,-2,-1.7,-4,i
CN(Cc1nccs1)C(=O)C1CCC(=O)N(CCc2ccc(Cl)cc2)C1 (stereo not drawn),-3,0.0,0,-0.2,-2,12,17,1.9,2,i
O=C(CCn1c(=O)oc2ccccc21)NCCN1CCc2ccccc2C1,-7,-3.2,-9,·,-2,·,·,·,-3,·
NC(=O)CC(NC(=O)Cc1ccc(Br)cc1)c1ccc(N2CCN(c3ccccn3)CC2)c([N+](=O)[O-])c1 (stereo not drawn),-2,2.4,0,0.8,-3,3,1,0.7,0,i
C[C@H](NC(=O)C1CCN(S(=O)(=O)c2ccccc2)CC1)C(=O)NCc1ccc(F)cc1,1,-1.4,4,0.7,2,-3,12,-1.2,-1,i
C/C(=N\NC(=O)c1ccc(N(C)C)cc1)c1ccc(C)c(C)c1,23,0.5,-5,·,-1,·,·,·,2,·
COc1ccc(CNC(=O)C(=O)NCc2cccnc2)cc1,-1,-1.2,-9,-2.9,-15,3,0,-1.3,-3,i
N#Cc1ccsc1NC(=O)CSc1nncs1,2,·,·,-1.6,·,7,0,-0.7,2,i
O=S(=O)(Nc1ccc(Cc2ccncc2)cc1)c1ccc(Br)s1,-12,0.6,8,·,-1,·,·,·,2,·
O=C(NCCCN1CCOCC1)c1ccc(CS(=O)(=O)Cc2ccccc2Cl)o1,-4,-2.3,-4,·,-6,·,·,·,-5,·
COc1cccc(NC(=O)C(C)OC(=O)CCCNC(=O)c2ccc(Cl)cc2)c1 (stereo not drawn),25,2.4,-9,-2.0,12,4,6,0.5,3,i
CCOc1ccc(CCNC(=O)CCOc2cc(C)ccc2C)cc1OCC,·,-1.7,20,-5.8,-7,4,3,0.7,-6,+

# Of the compounds above, 4 have a thiophene ring, fused or not.
SMILES,ALR H2O2 inh,RanGTP-Impb inh,T cruzi repl,AF4-AF9 inh,Calb FLC,Ecoli rRNA inh,Ecoli rRNA inh OD600,Ecoli rRNA inh RFP,Beta apoptosis,FGF22 binding
COC(=O)c1c(NC(=O)C(=O)NCCCN2CCOCC2)sc2c1CC(C)(C)OC2,2,-3.1,-7,-1.8,-10,11,6,-3.3,6,i
NC(=O)c1ccsc1NC(=O)c1nc(-c2ccccc2)n(-c2ccccc2)n1,86*,2.2,20,·,18,·,·,·,3,·
N#Cc1ccsc1NC(=O)CSc1nncs1,2,·,·,-1.6,·,7,0,-0.7,2,i
O=S(=O)(Nc1ccc(Cc2ccncc2)cc1)c1ccc(Br)s1,-12,0.6,8,·,-1,·,·,·,2,·

# The list is partial, so the mix of outcomes need not match the whole.
